Screening data deposited in PubChem by several laboratories.
eIF4H inh – inhibitors of RNA binding by human eIF4H | Q15056 | eIF4H fluorescence polarization binding assay | inhibition, % at 35 µM | 290,000 tested, 0.94% active;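 active means 50% or more with normal probe brightness, or confirmed in later tests; inconclusive means above 50% with abnormal brightness, or retests that disagree; inactive means below 50% or failed in later tests; about a fifth of its hits are not listed in these tables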;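 further: calls also rest on retests at 20 µM and on dose response follow-up; 0% = protein and probe with vehicle and 100% = probe without protein; strong numbers were not always called active; many hits fall short of the cut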
CSC inhib – blocks cancer stem cells. cancer stem cell-like cells viability, luminescence. inhibition, % at 7.5 µM. 300,000 tested, 1.1% active. AID 2717;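 active means mean at 75% or more and at least half the replicates too; inconclusive means mean and replicates disagree; tested in HMLE shEcad cells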;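 further: 0% = median of negative and 100% = median of positive control wells; the first replicate is given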
Env fusion inh – inhibitors of HIV Env-mediated cell fusion. inhibition, % at 12.3 µM. HeLa-JRFL Env/CEM21 cell fusion, luciferase. 360,000 tested, 1.1% active;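 active means mean replicate inhibition score of at least 50 and every replicate individually at or above 50; inconclusive means only one of the two criteria met; inactive means mean below 50 and not all replicates reaching 50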;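 further: 0% = plate neutral controls and 100% = maraviroc near 300 nM; one replicate is shown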
Rce1 inhib – yeast Ras-converting enzyme inhibition. Q03530. yeast membranes, quenched prenylated peptide cleavage fluorescence. 290,000 tested, 0.27% active. calls only. AID 2563;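 active means fall in fluorescence gain of 50% or more versus controls, with final raw signal at or below 3038400; inconclusive means same 50% fall but final raw signal above 3038400; inactive means fall in fluorescence gain under 50%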;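 further: plate controls were neutral control wells for no effect and wells lacking membranes for full effect; tested at 10 µM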
Target sequence (Q03530 whole entry, looked up): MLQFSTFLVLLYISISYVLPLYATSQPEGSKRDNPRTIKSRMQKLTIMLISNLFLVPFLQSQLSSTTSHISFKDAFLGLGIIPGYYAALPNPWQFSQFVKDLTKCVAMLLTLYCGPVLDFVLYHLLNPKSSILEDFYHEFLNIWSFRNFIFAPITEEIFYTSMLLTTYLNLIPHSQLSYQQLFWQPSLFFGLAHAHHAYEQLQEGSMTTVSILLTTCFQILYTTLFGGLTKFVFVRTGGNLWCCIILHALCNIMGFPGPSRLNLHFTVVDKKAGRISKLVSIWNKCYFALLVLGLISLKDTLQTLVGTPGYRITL
Yeast UUG start – yeast start codon fidelity modulation | activity score, % at 18.7 µM | 350,000 tested, 0.13% active | S. cerevisiae UUG-firefly luciferase reporter, luminescence/redox ratio;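 active means replicate mean at a twofold rise or more, about +100% in these data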;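 further: firefly luciferase made from a UUG start codon reports start codon fidelity; reporter light over untreated wells divided by growth signal over untreated wells; some hits fall short of that in this replicate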
PABP FP inh – blocks human PABP binding to poly(A) RNA; P11940; fluorescence polarization; inhibition, % at 35 µM; 290,000 tested, 1% active;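 active means 50% or more with normal probe brightness, or confirmed in later tests; inconclusive means above 50% with abnormal brightness, or retests that disagree; inactive means below 50% or failed in later tests; about a fifth of its hits are not listed in these tables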;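 further: calls also rest on retests at 20 µM and on dose response follow-up; controls were probe without protein and protein plus probe with vehicle; some compounds called inactive have numbers as strong as hits; many hits fall short of the cut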
Target sequence (P11940 whole entry, looked up): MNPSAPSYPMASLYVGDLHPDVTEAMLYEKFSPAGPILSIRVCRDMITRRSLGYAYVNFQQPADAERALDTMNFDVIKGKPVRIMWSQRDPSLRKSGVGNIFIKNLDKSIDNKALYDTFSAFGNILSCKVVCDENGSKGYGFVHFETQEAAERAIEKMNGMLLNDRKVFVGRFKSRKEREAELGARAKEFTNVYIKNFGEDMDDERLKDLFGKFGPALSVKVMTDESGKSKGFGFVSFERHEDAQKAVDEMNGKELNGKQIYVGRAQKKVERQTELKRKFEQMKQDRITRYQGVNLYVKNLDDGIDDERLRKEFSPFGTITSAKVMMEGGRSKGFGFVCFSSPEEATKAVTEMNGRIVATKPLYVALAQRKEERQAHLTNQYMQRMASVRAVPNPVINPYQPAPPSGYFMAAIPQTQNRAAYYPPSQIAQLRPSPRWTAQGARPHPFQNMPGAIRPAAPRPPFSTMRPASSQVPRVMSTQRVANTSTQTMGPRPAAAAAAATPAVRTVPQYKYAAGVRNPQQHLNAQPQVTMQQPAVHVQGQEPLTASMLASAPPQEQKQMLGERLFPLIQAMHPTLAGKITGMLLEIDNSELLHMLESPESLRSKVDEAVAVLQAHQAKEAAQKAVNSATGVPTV
MT1-MMP act inh – inhibitors of human MT1-MMP activation; HT1080 RFP-PRO-GFP cells, GFP/RFP ratio fluorescence, overnight; percent of plate control window, DMSO zero; GFP/RFP ratio change, % at 20 µM; 360,000 tested, 0.061% active;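 active means GFP/RFP ratio change of at least 30% with cell ATP level not reduced by more than half and red fluorescence within 50% of control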; further: strong numbers were not always called active
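Test system: HT1080 cells expressing an RFP-PRO-GFP fluorescent reporter construct / Compound dosing: single-point 20 µM compound, 1% DMSO / Schedule: cells overnight before dosing, compound overnight, 37 °C, 5% CO2 / Evaluation: GFP/RFP fluorescence ratio / Control set: DMSO and RFP-L50D-GFP cell wells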
MT1-MMP act inh RFP – second read-out of MT1-MMP act inh, no call of its own (marks repeat the call); RFP signal change, %; measured here: RFP expression control read;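 0 = vehicle wells; hits needed this value within 50% of zero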
* marks the source's active call; other numbers are inactive results; i = inactive; ? = inconclusive; . = not tested or not shown; & = joins results of further samples; [ ] = another dose, or the depositor's remark. An excerpt; the hit share may differ from the screen's.

Every second line gives: eIF4H inh	CSC inhib	Env fusion inh	Rce1 inhib	Yeast UUG start	PABP FP inh	MT1-MMP act inh	MT1-MMP act inh RFP
> Cc1c(Cl)cnc(NC(=O)COC(=O)C(NC(=O)c2ccco2)C(C)C)c1Cl (configuration not stated)
  36	-6	-45	i	-7	35	1	7
> COc1ccc(N2CCN(C(=O)c3cccc(NS(=O)(=O)c4cccc(F)c4)c3)CC2)cc1
  -2	.	-43	i	-7	-3	0	2
> CN(C)C(=O)c1cnc(Sc2ncc(C(F)(F)F)cc2Cl)n1C
  -8	-3	.	i	-12	-12	4	4
> CCCC(C)c1nnc(NC(=O)CCS(=O)(=O)c2ccccc2)s1 (configuration not stated)
  0	-9	5	i	.	-8	-1	0
> COc1ccc(N(CC(=O)NC2CCCC2)C(=O)Cn2nnc(-c3ccc(C)o3)n2)cc1
  5	.	10	i	-5	8	-1	0
> O=C(CN1CCOCC1)Nc1cccc(C(=O)Nc2cccc(C(F)(F)F)c2)c1
  5	-12	13	.	0	-4	5	3
> COc1ccc(C(=O)Nc2scc(-c3ccc(Cl)cc3Cl)c2C(N)=O)cc1
  4	-4	.	i	-9	-2	-11	-9
> CCCOc1ccc(-c2nnn(CC(=O)N3CCCCC3)n2)cc1
  1	-6	-17	i	-5	-2	.	.
> O=C(COC(=O)c1ccc2c(c1)OCCO2)NCc1ccccc1Cl
  .	-17	9	.	-10	.	-1	1
> C[C@H](CO)N1C[C@H](C)[C@@H](CN(C)C(=O)NC2CCCCC2)Oc2ccc(NC(=O)CCC(F)(F)F)cc2C1=O
  .	.	-19	.	10&6	.	-2	4
> COc1ccc(NC(=O)CN2CCN(c3c(C)cc(C)cc3C)CC2)cc1
  0	3	18	i	0	-6	0	1
> O=C1CC2C(=O)NCCN2C(=NC(=O)c2ccccc2)N1 (configuration not stated)
  -1	3	3	i	-3	3	0	5
> Cc1ccccc1C(=O)Nc1ccc(N(C)C)c2ccccc12
  2	-13	9	i	-16	6	-3	-1
> O=C(CN(C(=O)CCC(=O)Nc1nccs1)c1ccc(F)cc1)NCc1ccccc1
  0	.	-8	i	-6	1	-1	1
> O=C(Cc1ccccc1F)OCC(=O)N1CCc2ccccc21
  10	-9	1	i	-25	-3	1	7
> Cc1ccc(C(=O)NCCc2c[nH]c3ccccc23)c(C)c1
  2	-19	-66	i	.	9	1	-2
> COc1ccccc1NC(=O)/C(=N/OCc1ccc(F)cc1)C(C)=O
  -2	-14	22	i	-6	4	0	1
> CC(C)CCOc1ccc(NC(=O)C2OC3OC(C)(C)OC3C3OC(C)(C)OC23)cc1 (configuration not stated)
  -6	-2	-35	i	-7	-1	3	0
> COc1ccc2oc(=O)c(C(=O)N3c4ccccc4CC3C)cc2c1 (configuration not stated)
  -7	-11	.	i	-3	-3	8	2
> COCCCNCC(=O)Nc1sc(C)c(C)c1C(=O)OC
  -8	-3	.	i	-21	10	3	1
> CCN(CC)CCCNc1ccc(-c2nnc(-c3ccc(OCC(C)C)cc3)o2)cn1
  -8	103*	-8	?	-7	-8	.	.
> CCOC(=O)c1ccc2c(c1)sc(=NC(=O)c1ccco1)n2CCOC
  -8	-11	-6	i	-1	-1	4	3
> CCN=C1Sc2nc3ccc(OCC)cc3cc2CN1CCOC
  -5	6	-35	i	-20	-5	2	-2
> CC(NC(=O)CSc1n[nH]c(N)n1)c1ccccc1 (configuration not stated)
  0	.	6	i	-21	-3	1	3
> CCCN(C(=O)CN1C(=O)NC2(CCCCCC2)C1=O)C1CCS(=O)(=O)C1 (configuration not stated)
  -4	0	15	i	-9	8	2	0
> Cc1cc(SCNC(=O)c2ccccc2)ncn1
  -4	-1	.	i	-4	7	2	6
> CC(C)c1ccc(-c2noc(C3CCCN(C(=O)c4ccc(F)cc4F)C3)n2)cc1 (configuration not stated)
  -5	-9	?	i	3	-6	-9	-22
> Cc1ccc(SCCCCN2CCNCC2)cc1
  -4	47	10	.	-7	12	0	3
> Oc1[nH]c2ccccc2c1C=NCC1CCCO1 (configuration not stated)
  7	-7	-46	i	-15	-15	-2	4
> CCN1C(=O)c2cccc3c(NC(=O)c4ccccc4)ccc1c23
  -1	-7	.	i	-12	-9	8	6
> Cc1ccc(NC(=O)CC2SC(=O)NC2=O)cc1 (configuration not stated)
  -8	-10	.	i	-20	2	6	0
> Cc1ccccc1OC(C)C(=O)N1CCN(c2ccccn2)CC1 (configuration not stated)
  0	-10	-112	i	-12	0	-3	0
> O=S(=O)(c1ccccc1)c1ccccc1/C=N\O
  6	13	.	i	4	0	3	6
> O=S(=O)(c1ccc(-c2ccon2)s1)N1CCN(c2ccncc2)CC1
  -1	-9	.	i	.	4	.	.
> CC(=O)c1nc2ccccc2n1CCc1ccccc1
  4	-3	3	i	-12	2	0	-2
> CC(C)[C@H](NC(=O)[C@H](CC(=O)O)NC(=O)[C@H](CCCCN)NC(=O)[C@@H](N)CCCN=C(N)N)C(=O)N[C@@H](Cc1ccc(O)cc1)C(=O)O
  -4	-10	.	i	.	5	.	.
> Cc1ccc(CN(c2ccc(C(=O)N3CCOCC3)cc2)S(C)(=O)=O)cc1
  -7	.	.	i	-12	-6	0	2
> O=C(CSC(=S)N1CCOCC1)c1cc(Br)cc(Br)c1O
  9	42	-4	i	-18	24	24	21
> COc1cc(NC(=O)c2cnn3c(C)cc(C)nc23)c(OC)cc1Cl
  -4	.	.	i	-14	-5	7	22
> Cc1cc(=O)oc2cc(OCC(=O)OCC(=O)N(CCC#N)c3ccccc3)ccc12
  -9	.	-6	i	.	-1	1	8
> COCOc1cccc(CN2CCC2(C)C(=O)Nc2ccc(C)cc2)c1 (configuration not stated)
  .	.	28	.	-13	.	1	-2
> CC(C)COc1ccc(S(=O)(=O)n2cc(F)c(=O)[nH]c2=O)cc1
  1	-1	9	i	.	2	-4	-6
> CC1(C)N=C(C(=O)c2ccccc2)N(O)C1(C)O (configuration not stated)
  -3	-9	-10	i	-3	5	2	-1
> O=C(COC(=O)CSc1ccc(F)cc1)NC1CCCCCC1
  .	.	-2	.	-11	.	3	7
> O=c1cc(C(F)(F)F)nc(-c2ccccc2)[nH]1
  -15	-7	12	i	-10	-1	-6	-3
> CN1CCN(C(=O)C2(NC(=O)Nc3ccccc3Cl)CCCCC2)CC1
  -8	-10	.	i	.	40	4	4
> N#CC(=C1Nc2ccccc2N1)S(=O)(=O)c1ccccc1
  -5	.	13	i	-15	2	-2	-2
> CCOC(=O)c1ccc(NC(=O)CCc2ccc(CC)o2)cc1
  -4	-4	-13	i	-27	16	2	3
> CN(C)/C=C1\C=C2C(=O)c3ccccc3N2C1=O
  ?	-9	-1	i	.	?	-107	8
> COc1ccccc1NS(=O)(=O)c1cccc(NC(=O)c2ccc3ccccc3n2)c1
  -17	15	.	i	-21	-14	-9	-19

New compounds follow.
Every second line gives: eIF4H inh	CSC inhib	Env fusion inh	Rce1 inhib	Yeast UUG start	PABP FP inh	MT1-MMP act inh	MT1-MMP act inh RFP
> COc1ccc(-c2nc(-c3ccccn3)ncc2S(C)(=O)=O)cc1
  -7	-10	-3	.	.	1	1	6
> Cc1nn(Cc2c(F)cccc2Cl)c(=O)c2ccccc12
  -8	7	3	i	2	-1	1	1
> C[C@H](CO)N1C[C@H](C)[C@@H](CN(C)C(=O)Nc2ccc3c(c2)OCO3)Oc2c(NC(=O)Cc3ccccc3)cccc2C1=O
  .	.	-6	.	-6	.	-1	5
> COC(=O)c1ccc(S(=O)(=O)N2CCCCC2)o1
  -13	-7	25	i	-7	1	7	3
> CC(C)c1ccc(NC(=O)CSc2nnc(-c3ccccn3)n2C)cc1
  -5	5	-18	i	-1	-2	1	2
> COc1ccc(/C=C2\CCC(C3CCCC3)C2=O)cc1Cn1cccn1 (configuration not stated)
  2	-7	17	i	.	1	-4	-4
> CC(N=C1NS(=O)(=O)c2ccccc21)c1ccccc1 (configuration not stated)
  -4	-8	.	i	-10	-1	-1	-3
> Cc1cc(N)n(-c2ccc(S(N)(=O)=O)cc2[N+](=O)[O-])n1
  -8	?	0	i	.	6	3	6
> O=C1CCCC2=C1C(c1ccc(O)c(Br)c1)C1=C(CCCC1=O)N2c1ccccc1
  21	-6	-31	i	.	10	-8	-4
> CN1CCN(CCCN2c3ccccc3Sc3ccc(C(F)(F)F)cc32)CC1
  0&4	52	0&30&19	i	5	-4&5	-2&-2&-2	-2&3&1
> CCC1(C)NC(=O)N(CC(=O)N2N=C(c3ccccc3)CC2c2ccc(OC)cc2)C1=O (configuration not stated)
  -12	1	26	i	0	-8	-5	0
> O=C(CSc1nc2ccccc2c(=O)n1-c1ccccc1F)NC1CC1
  .	-12	3	.	-17	.	4	-1
> CSCCC(NC(=O)c1ccccc1Cl)C(=O)Nc1ccc(C)c(S(=O)(=O)N2CCOCC2)c1 (configuration not stated)
  .	8	6	i	-7	.	5	-1
> Cc1nn(Cc2ccc(F)cc2)c(C)c1NC(=O)CCCn1nc([N+](=O)[O-])cc1C
  -2	-21	5	i	-17	7	-4	2
> CCC1CC2CC(NC(C)=O)C1C2 (configuration not stated)
  2	-11	.	i	-8	11	-1	5
> CC(C)CNC(=O)NC(=O)COC(=O)Cn1cnc2ccccc2c1=O
  -6	-4	4	i	.	1	1	4
> NS(=O)(=O)c1ccc(CNC(=O)c2cccc(Oc3ccccc3)c2)cc1
  -15	4	-2	i	0	5	-3	1
> COC(=O)CN1C(=S)N(c2ccc(OC)cc2)C(=O)/C1=C/c1ccc(N2CCOCC2)cc1
  ?	-2	11	i	.	-2	-134	5
> COc1ccc(CCNC(=O)C2CCN(S(=O)(=O)c3cccc4nsnc34)CC2)cc1OC
  -8	-12	.	i	-6	-8	4	-1
> COc1ccc(S(=O)(=O)N(C)C[C@H]2Oc3ccc(NS(=O)(=O)c4cccs4)cc3C(=O)N([C@H](C)CO)C[C@@H]2C)cc1
  .	.	28[16.7 µM]	.	9&12	.	3	5
> Oc1ccc2ccccc2c1CN1CCOCC1
  -2	-13	11	i	-16	2	4	5
> Cc1ccc(-n2ncc3c2CC(C)(C)CC3NC(=O)CCN2CCCO2)cc1 (configuration not stated)
  48	-20	4	i	-12	6	0	0
> Cc1[nH]n(-c2ccccc2)c(=O)c1CCOC(=O)c1ccc(C(F)(F)F)cc1
  -13	-8	-25	i	-15	7	-5	-4
> CCOC(=O)c1ccc(-n2c(CN3CCOCC3)nc3ccc([N+](=O)[O-])cc3c2=O)cc1
  2	-17	-3	i	.	4	1	3
> CC1(C)C2CCC(C2)C1(C)NC(=O)CN1CCOCC1 (configuration not stated)
  -8	-10	.	.	-1	-6	-8	-1
> CC(OC(=O)/C=C/c1ccccc1)C(=O)Nc1ccc(C(N)=O)cc1 (configuration not stated)
  .	-10	31	.	-10	.	3	2
> O=C(CSc1ccc(-c2ccccc2)nn1)N1CCCCC1
  -1	.	-27	i	-14	-8	-5	5
> O=Cc1c[nH]c2ccc(OCc3ccccc3)cc12
  .	20	.	.	-11	.	9	-2
> CC(C)Nc1nnc(SCC(=O)c2c(N)n(Cc3ccccc3)c(=O)n(C)c2=O)s1
  -21	1	.	i	.	-1	1	-2
> COc1ccc(OC)c(NC(=O)c2ccc(-c3csc(C)n3)cc2)c1
  -2	-7	-7	i	-10	10	1	-6
> COCCNC(=O)c1c[nH]c2ccc(OC)cc2c1=O
  -13	-7	-378	i	-27	-8	11	5
> O=C1NC(c2cc(Cl)cc([N+](=O)[O-])c2O)Nc2ccccc21 (configuration not stated)
  -2	29	-10	i	-25	12	-6	0
> CCCc1nc2c(ccc3ccccc32)cc1CC
  5	3	-13	i	2	-3	3	5
